# Screening data deposited in PubChem by National Center for Advancing Translational Sciences (NCATS).
# Cruzain inh Det: inhibitors of Trypanosoma cruzi cruzain with detergent. P25779. purified cruzain, Z-FR-AMC fluorescence, 0.01% Triton. Potency, µM, for inactives: max response, negative = inhibition, most hits filed as inhibitors. actives 0.43% (n = 200,000); active means well fitted curve in the direction sought with a large enough effect; inconclusive means small, poorly fitted or top-dose-only effect, or another doubt; inactive means no such curve, though single readings can be large; an effect the other way counts as inactive or inconclusive;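 further: plate controls were neutral wells for no effect and buffer without enzyme for full effect; nearly all actives have a fitted effect of over 40% in size; top concentration of the series not given in the record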
# Target sequence (P25779 123-467 limits assumed): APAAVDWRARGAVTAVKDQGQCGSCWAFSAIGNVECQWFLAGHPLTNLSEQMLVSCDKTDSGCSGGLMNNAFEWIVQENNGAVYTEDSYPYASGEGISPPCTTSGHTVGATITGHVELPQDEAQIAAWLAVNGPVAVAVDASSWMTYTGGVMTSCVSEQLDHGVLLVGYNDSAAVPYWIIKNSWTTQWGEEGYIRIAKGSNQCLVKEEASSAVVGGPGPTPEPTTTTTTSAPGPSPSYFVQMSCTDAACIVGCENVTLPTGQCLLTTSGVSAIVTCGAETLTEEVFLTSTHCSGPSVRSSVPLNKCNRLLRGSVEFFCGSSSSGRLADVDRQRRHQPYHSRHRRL
#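 Steps: dispense cruzain (1.5 nM final) in acetate buffer pH 5.5 with DTT and 0.01% Triton X-100; pin-transfer compounds; incubate 15 min RT; add Z-FR-AMC (2 uM final); read fluorescence every 30 s, using the 60 s intensity change.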
# Cruzain noTriton: cruzain (T. cruzi) inhibition without detergent; purified cruzain, Z-FR-AMC fluorescence, no detergent; actives 2.3% (n = 200,000); P25779; Potency, µM, for inactives: max response, negative = inhibition, actives largely listed as inhibitors; active means well fitted curve in the direction sought with a large enough effect; inconclusive means small, poorly fitted or top-dose-only effect, or another doubt; inactive means no such curve, though single readings can be large; an effect the other way counts as inactive or inconclusive;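 further: plate controls were enzyme without inhibitor for no effect and buffer without enzyme for full effect; nearly all actives have a fitted effect of over 40% in size; top concentration of the series not given in the record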
#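 Purified cruzain at 1.5 nM, pre-incubated 15 min with compound at room temperature in 100 mM sodium acetate pH 5.5, 5 mM DTT, 0.00005% Triton X-100. Reaction started with 2 uM Z-FR-AMC; AMC fluorescence increase over 60 s gives rate.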
# SARS PLP yeast: blocks SARS-CoV papain-like protease in a yeast assay | S. cerevisiae expressing SARS-CoV PLpro, growth rescue; control for the full effect not named in the record | Potency, µM (top dose mostly 32.9 µM), without a hit: at the top dose activity, positive = growth rescue | actives 0.19% (n = 330,000); further: 0% is about no effect; nearly all actives have a fitted effect of over 55% in size; growth read by luminescence after 48 h
# Lassa entry inh: blocks Lassa virus binding to or entry into cells. Lassa virus pseudotype entry inhibition, cell reporter; control for the full effect not named in the record. Potency, µM (titrated, usually from 37.9 µM), for the others: at the top dose activity change, negative = inhibition, most hits filed as inhibitors. actives 1.2% (n = 300,000); active means well fitted inhibition curve with a large enough effect; inconclusive means small, poorly fitted or top-dose-only effect, or effect the other way; inactive means flat fitted curve, though single readings scatter; tested in HEK293 cells; further: on the % scale 0 is the no-effect control and ±100 the full control effect; nearly all actives have a fitted effect of over 50% in size; luciferase read-out
# RE007 growth inh: less growth of the S. pombe RE007 Vpr strain; S. pombe RE007 Vpr strain, BacTiter-Glo ATP luminescence, 24 h; control for the full effect not named in the record; Potency, µM (series often up to 92.2 µM), inactives show at the highest dose activity change, negative = less growth; actives 0.21% (n = 360,000); active = well fitted falling curve with a large enough effect; inconclusive = small, poorly fitted or top-dose-only effect; inactive = no such curve, though single readings can be large or run the other way;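 further: on the % scale 0 is the no-effect control and ±100 the full control effect; nearly all actives have a fitted effect of over 50% in size; the assay follows cell death caused by Vpr and the record does not say whether a fall means rescue or toxicity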
#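 Fission yeast strain RE007, carrying one chromosomally integrated HIV-1 vpr copy, was seeded at OD 0.01 in PMG+AL medium with 23 nL pinned compound. After 24 h at 30 °C and 99% humidity, viability was read by BacTiter-Glo luminescence.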
# 2A StopGo: FMDV 2A StopGo reporter, luciferase signal; Potency, µM (series often up to 57.9 µM), inactives show top-dose signal change, negative = less light; human cells with a luciferase reporter of 2A StopGo recoding; control for the full effect not named in the record; actives 1.2% (n = 410,000); AID 1159524; active = well fitted falling curve with a large enough effect; inconclusive = small, poorly fitted or top-dose-only effect; inactive = no such curve, though single readings can be large or run the other way; tested in HEK293T cells; further: on the % scale 0 is the no-effect control and ±100 the full control effect; nearly all actives have a fitted effect of over 45% in size; luciferase light after 4 h
# MARV entry inh: inhibitors of Marburg virus binding or cell entry; Marburg virus pseudotyped entry inhibition, cell reporter; control for the full effect not named in the record; about a third of the inactives were read at about 46 µM; Potency, µM (series often up to 37.8 µM), without a hit: at the top dose activity change, negative = inhibition, most hits filed as inhibitors; actives 1.8% (n = 300,000); AID 540276; active = well fitted inhibition curve with a large enough effect; inconclusive = small, poorly fitted or top-dose-only effect, or effect the other way; inactive = flat fitted curve, though single readings scatter; tested in HEK293 cells; about a fifth of its hits are not listed in these tables; further: on the % scale 0 is the no-effect control and ±100 the full control effect; luciferase read-out
# NS1 function inh: inhibitors of influenza NS1 protein function. S. cerevisiae slowed by influenza A NS1, growth recovery by OD600. actives 0.4% (n = 270,000). Potency, µM (highest dose often 46.1 µM), inactives show at the highest dose activity, positive = more growth; further: actives are rising curves; nearly all actives have a fitted effect of over 50% in size
#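 S. cerevisiae expressing influenza A NS1, grown in glucose, washed, then diluted 1:100 into pH 6.0 -URA galactose medium with 23 nl compound. Growth recovery read as OD600; NS1-free strain serves as control.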
# * hit, by the source's call; ? = inconclusive; nt = no result given; & = joins results of further samples; [ ] = another dose, or the depositor's remark. Unless noted, the call rests on the fitted dose curve; in most records, active means well fitted rising curve with a large enough effect; inconclusive means small, poorly fitted or top-dose-only effect; inactive means no such curve, though single readings can be large or run the other way. Potency means the concentration at half of the fitted maximal effect.
1) O=C(NCC1CCCO1)c1cc2c([nH]c3ccccc32)c(-c2cccc(Cl)c2)n1 (stereo not given)
2) CCC(=O)NC(Nc1c(C)n(C)n(-c2ccccc2)c1=O)C(Cl)(Cl)Cl (stereo not given)
3) COc1ccccc1/C=N/NC(=O)c1nnn(-c2nonc2N)c1CN(C)c1ccccc1
4) O=C1OCCC1Sc1nc2ccccc2s1 (stereo not given)
5) COc1ccc(-c2ccc(NC(=O)c3ccc(Br)o3)cc2)nn1
6) COc1ccc(CCNC(=O)C(=O)NCCOc2ccccc2Cl)cc1OC
7) O=C1N=C(N2CCCCC2)S/C1=C\c1ccc(Br)cc1
8) CC(=O)c1c[nH]c(C(=O)NCC2CCCO2)c1 (stereo not given)
9) CC(NS(=O)(=O)c1ccccc1)C(=O)Nc1ccc(S(N)(=O)=O)cc1 (stereo not given)
10) COC(=O)c1c(C)[nH]c(C(=O)CC#N)c1C
compound no.,1,2,3,4,5,6,7,8,9,10
Cruzain inh Det,nt,nt,nt,-6.5%,nt,0.9%,nt,0.9%,-0.7%,nt
Cruzain noTriton,nt,nt,nt,-15%,nt,2%,nt,-1%,1%,nt
SARS PLP yeast,-17%,0%,1%,2%,1%,-1%,1%,?,4%,3%
Lassa entry inh,nt,nt,nt,-7%,19%,-4%,nt,-4%,10%,-13%[46.1 µM]
RE007 growth inh,-3%,-15%,0%,-19%,8%,-11%,-2%,3%,-3%,-5%
2A StopGo,?,12%,-13%,-8%,14%,0%,32%[activator],-3%,-14%,-21%
MARV entry inh,nt,nt,nt,-17%[46.1 µM],?,?,nt,-1%,2%,0%[46.1 µM]
NS1 function inh,-30%,1%,-33%,16%,nt,-2%,-20%,-2%,0%,-2%

11) COc1ccccc1NC(=O)c1c(NC(=O)COc2ccccc2)sc2c1CCCCC2
12) Cc1ccc(NC(=O)Cn2nc(-c3ccccc3)nc2-c2ccccc2)c(C)c1
13) CC(C)NC(=O)C(C)N1CCN(S(=O)(=O)c2ccc3ccccc3c2)CC1 (stereo not given)
14) CC(=O)Nc1cccc(NC(=O)CSc2ccc(-c3cccnc3)nn2)c1
15) CC(C(=O)N1CCCC1)N1CCN(S(=O)(=O)c2ccc(OC(F)(F)F)cc2)CC1 (stereo not given)
16) Cc1ccccc1-c1noc(-c2ccccc2C(=O)NCC2CCCO2)n1 (stereo not given)
17) Cc1cccc(OCCNC(=O)CSc2ccc(C(F)(F)F)cc2[N+](=O)[O-])c1
18) COc1ccccc1CCC(=O)OCC(=O)NC1CCCCC1
19) Oc1ccc(Nc2nc(-c3ccccc3)nc3ccccc23)cc1
20) CC1(C)CC(=O)C2=C(C1)NC(=O)CC2c1ccc(N(CCC#N)CCC#N)cc1 (stereo not given)
compound no.,11,12,13,14,15,16,17,18,19,20
Cruzain inh Det,0.3%,1.8%,nt,nt,nt,nt,-10%,nt,nt,-1.0%
Cruzain noTriton,-7%,2%,nt,nt,nt,nt,10%,nt,nt,-16%
SARS PLP yeast,nt,2%,0%,5%,2%,-1%,-4%,-1%,-8%,2%
Lassa entry inh,?,-7%,-26%,8%,-11%,nt,22%,14%[46.1 µM],?,20%
RE007 growth inh,nt,5%,1%,31%,9%,-16%,10%,-12%,-14%,12%
2A StopGo,-8%,-11%,-13%,0%,-19%,7%,-14%,2%,?,nt
MARV entry inh,-30%[46.1 µM],-8%,-14%[46.1 µM],?,-4%,nt,-2%,0%[46.1 µM],?,?
NS1 function inh,nt,6%,-5%,nt,nt,-3%,4%,12%,1%,-1%

21) Cc1cc(C)c2nc(-c3ccccn3)cc(C(=O)Nc3ccc(S(=O)(=O)Nc4onc(C)c4C)cc3)c2c1
22) CCOC(=O)C1(Cc2cccc(Cl)c2)CCCN(C(=O)CCOC)C1 (stereo not given)
23) CCCc1cc(=O)oc2cc(C)c(CN3CCCC3)c(O)c12
24) COc1ccc(CN2C(=O)c3ccccc3C2=O)cc1C(=O)Nc1ccccc1N1CCOCC1
25) Cc1ccc(S(=O)(=O)Nc2cccc(S(=O)(=O)N3CCCC3)c2)cc1C
26) Cc1nn(-c2ccc(N3CCCC3)nn2)c(C)c1CCC(=O)N1CCN(c2ccccc2)CC1
27) Cc1occc1-c1nnc(SCC(=O)N2CCCC(C)C2)o1 (stereo not given)
28) CCCCn1nc2cc(C(=O)NC3CCc4ccccc43)ccc2c1OCC (stereo not given)
29) Cc1ccc(-c2noc(-c3nnn(CC(=O)Nc4ccc(C)c(Cl)c4)c3N)n2)cc1
30) COc1c(C(C)C)oc2cc3oc(=O)ccc3cc12
compound no.,21,22,23,24,25,26,27,28,29,30
Cruzain inh Det,nt,nt,-15%,nt,nt,-1.4%,nt,-3.5%,-1.9%,1.5%
Cruzain noTriton,nt,nt,9%,nt,nt,-15%,nt,9%,0%,1%
SARS PLP yeast,-1%,-1%,9%,2%,4%,nt,-1%,-17%,nt,-2%
Lassa entry inh,0%[46.1 µM],0%,22%,?,-24%,-7%[46.1 µM],28%,nt,?,nt
RE007 growth inh,-4%,24%,-2%,20%,-15%,nt,15%,-21%,nt,-14%
2A StopGo,-21%,28%,1%,-18%,44%[activator],-21%,1%,39%[activator],-10%,17%&17%
MARV entry inh,2%[46.1 µM],29%[46.1 µM],-25%,?,-1%,nt,5%,nt,nt,nt
NS1 function inh,-2%,1%,11%,nt,nt,nt,nt,-4%,nt,nt

31) CC(C)=CCC(C)(C)C1OCCN1C(=O)Nc1ccccc1 (stereo not given)
32) COc1ccc(C(C[N+](=O)[O-])c2c(-c3ccccc3)cc3ccccn23)c(OC)c1 (stereo not given)
33) Brc1ccc2[nH]c3nc(SCCN4CCOCC4)nnc3c2c1
34) CCCCNC(=O)C1CCC(CNc2c(N3CCC(C)CC3)c(=O)c2=O)CC1 (stereo not given)
35) CC(C)c1ccc(COC(=O)CN2C(=O)NC3(CCCCC3C)C2=O)cc1 (stereo not given)
36) Cc1ccc(-c2noc(CN(C(=O)CCCCCN3C(=O)c4ccccc4C3=O)C(C)C)n2)cc1
37) CCOc1cc(-c2cc(N)n[nH]2)cc(OCC)c1OCC
38) COc1ccccc1NC(=O)/C=C\C(=O)O
39) COc1ccc2oc(=O)c(C(=O)N3CCN(c4ccc(C)cc4)CC3)cc2c1
40) CC(C)N(Cc1nccn1C)C(=O)CC1C(=O)NCCN1Cc1ccc(F)c(F)c1 (stereo not given)
compound no.,31,32,33,34,35,36,37,38,39,40
Cruzain inh Det,8.4%,-6.4%,nt,nt,nt,1.3%,-1.5%,nt,-1.3%,nt
Cruzain noTriton,1%,?,nt,nt,nt,?,-2%,nt,-6%,nt
SARS PLP yeast,-3%,-23%,-1%,-6%,2%,2%,15%,-2%,nt,8%
Lassa entry inh,?,-21%,0.5µM*,5%,?,?,nt,-2%,-3%[46.1 µM],nt
RE007 growth inh,14%,?,2%&-3%,3%,4%,13%,20%,9%,nt,8%
2A StopGo,-11%,-8%,?,-3%,0%,?,-18%,-19%,-7%,-15%
MARV entry inh,?,-35%,?,1%[46.1 µM],?,?,nt,12%,-2%[46.1 µM],nt
NS1 function inh,-13%,6%,-8%&4%,1%,nt,5%,?,nt,nt,-7%

41) CN/N=C(\Cc1nc2ccccc2[nH]1)c1ccc([N+](=O)[O-])cc1
42) O=C(Nc1ccc(Br)cc1)c1cccn1-c1ncc(C(F)(F)F)cc1Cl
43) CC/C(=N\NC(=O)Nc1nonc1N)c1ccc(OC)c(OC)c1
44) COc1ccc(OC)c(CNC(=O)CCSCc2ccc(F)cc2Cl)c1
45) COc1ccc(NC(=O)CCC(=O)OCC(=O)c2ccc(Oc3ccc([N+](=O)[O-])cc3)cc2)cc1
46) NS(=O)(=O)c1ccc(CCNC(=O)C(=O)NCC2OCCN2C(=O)c2ccc3c(c2)OCO3)cc1 (stereo not given)
47) COC(=O)c1cccc(NC(=O)CSc2nnc(C)n2Cc2ccccc2)c1
compound no.,41,42,43,44,45,46,47
Cruzain inh Det,nt,-9.0%,nt,nt,4.4%,nt,0.5%
Cruzain noTriton,nt,0%,nt,nt,?,nt,2%
SARS PLP yeast,-6%,?,0%,-5%,-21%,2%,19%
Lassa entry inh,nt,-18%,12%[46.1 µM],nt,12%,-2%,27%
RE007 growth inh,-11%,0%,10%,1%,1%,-16%,8%
2A StopGo,37%[activator],?,-4%,-23%,-8%,-21%,-15%
MARV entry inh,nt,1%,12%[46.1 µM],nt,-12%[46.1 µM],4%[46.1 µM],-7%
NS1 function inh,0%,-40%,3%,-33%,9%,nt,1%
